# B2AR ag: activates human beta-2 adrenergic receptor causing internalization; Am2.2-beta2AR cells, FAP receptor internalization, flow cytometry; reference of the scale not given here; response, % (test concentration not listed); 0.43% of 340,000 active; AID 504454;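 active = response above a set limit, near 3 SD of response in nonfluorescent compounds, cut at about 42% in these data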;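 note: stock transfer was 100 nL into about 11 µL; a reference agonist was the positive control; negative values mostly stem from fluorescent compounds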
# Target sequence (P07550 whole entry, looked up): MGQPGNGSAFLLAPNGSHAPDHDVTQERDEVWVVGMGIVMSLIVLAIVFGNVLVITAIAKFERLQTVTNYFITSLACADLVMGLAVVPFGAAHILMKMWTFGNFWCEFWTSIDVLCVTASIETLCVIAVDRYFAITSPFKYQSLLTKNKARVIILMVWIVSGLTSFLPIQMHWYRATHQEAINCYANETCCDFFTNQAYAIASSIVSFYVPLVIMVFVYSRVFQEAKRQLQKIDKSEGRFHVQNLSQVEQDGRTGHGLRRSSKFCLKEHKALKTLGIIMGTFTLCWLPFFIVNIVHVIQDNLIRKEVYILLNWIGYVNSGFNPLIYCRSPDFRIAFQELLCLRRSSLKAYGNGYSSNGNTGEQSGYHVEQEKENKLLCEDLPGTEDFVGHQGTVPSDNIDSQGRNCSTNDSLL
# Ecoli growth: blocks Escherichia coli growth; OD600, 23 h; stronger effect = lower value; OD600 absorbance (test concentration not listed); 0.21% of 330,000 active;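 active = OD600 absorbance below the run mean of sample wells minus 3.6 SD, in any replicate, cut at about 0.56 in these data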;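 note: stock transfer was 300 nL into about 60 µL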
# FGF22 binding: binders of recombinant human FGF22 by thermal shift | Q9HCT0 | SYPRO orange fluorescence; percent of sucrose octasulfate shift, DMSO zero | calls only at 9.99 µM | 1.5% of 340,000 active | AID 651658;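 active = melting point raised past a set limit in the mean and every replicate; three in four hits are not shown here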
# Target sequence (Q9HCT0 whole entry, looked up): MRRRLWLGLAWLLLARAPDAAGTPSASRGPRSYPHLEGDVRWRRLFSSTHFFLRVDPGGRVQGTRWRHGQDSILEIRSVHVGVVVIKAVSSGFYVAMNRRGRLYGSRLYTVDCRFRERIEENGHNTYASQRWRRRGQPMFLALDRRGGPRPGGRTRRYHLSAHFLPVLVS
# UCH37 inh: human UCH37 deubiquitinating enzyme inhibition; Q9Y5K5; inhibition, % (test concentration not listed); purified proteasome/UCH37, Ub-AMC cleavage fluorescence; AID 588478; 0.33% of 330,000 active;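 active = mean of two replicates above 20%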;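 note: 0% = compound-free wells with enzyme and 100% = wells lacking proteasome; stock transfer was 100 nL into about 20 µL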
#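 system = Proteasome-associated human UCH37 deubiquitinase | amount = 0.15 nM proteasome as dispensed | medium = pH 7.4 Tris-HCl (50 mM) with ovalbumin, ATP-MgCl2, DTT | incubation = 30 min preincubation with enzyme, 25 min cleavage at room temperature | detection = AMC fluorescence 355/460 nm | read-out basis = percent inhibition | controls = no-proteasome and no-compound wells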
# HNF4A DNA FP: change in binding of human HNF4 alpha to DNA; P41235; HNF4a-FITC DNA binding, fluorescence polarization, 1 h; activity change, % at 10 µM; 0.3% of 360,000 active; in the data active = activity change above about 30%, passing the limit was not always enough;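 note: controls were the assay level and a saturating level of protein; the project sought stronger binding though the title names inhibitors; some compounds called inactive have numbers as strong as hits; positive values seem to mean higher polarization but the record does not say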
# Target sequence (P41235 whole entry, looked up): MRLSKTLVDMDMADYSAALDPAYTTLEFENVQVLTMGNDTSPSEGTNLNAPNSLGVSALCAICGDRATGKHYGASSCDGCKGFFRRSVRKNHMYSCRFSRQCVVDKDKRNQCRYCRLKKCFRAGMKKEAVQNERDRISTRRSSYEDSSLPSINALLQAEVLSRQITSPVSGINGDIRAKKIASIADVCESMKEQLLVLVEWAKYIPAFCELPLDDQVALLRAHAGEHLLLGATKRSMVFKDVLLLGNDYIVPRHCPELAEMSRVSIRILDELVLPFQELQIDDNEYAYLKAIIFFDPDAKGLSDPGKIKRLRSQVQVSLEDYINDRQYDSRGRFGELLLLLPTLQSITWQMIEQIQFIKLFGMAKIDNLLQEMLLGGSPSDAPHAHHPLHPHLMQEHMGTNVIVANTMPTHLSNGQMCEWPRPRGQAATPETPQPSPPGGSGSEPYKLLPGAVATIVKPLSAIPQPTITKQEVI
# rRNA inh HTS: inhibitors of bacterial rRNA selective over humanized ribosomes. AID 720706. 1.6% of 350,000 active. E. coli WT GFP vs humanized-ribosome RFP mutants, fluorescence, 24 h; stronger effect = lower value; DMSO median 0, no signal -100. GFP signal change (wild-type ribosome), % (test concentration not listed);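 active = significant combined selectivity score with lowered wild-type GFP, culture density cut under 30%, mutant RFP and density less affected; inactive = any of these conditions unmet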; note: one replicate is shown; some compounds called inactive have numbers as strong as hits
# ALR H2O2 inh: human ALR oxidase inhibition via reduced H2O2; P55789; purified ALR, DTT oxidation, H2O2 HRP-luminol luminescence; inhibition, % (no concentration beside the values); 3.8% of 290,000 active;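 active = mean and each replicate at 75% or more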;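 note: stock transfer was 7.5 nL into about 7.5 µL; 0% = neutral wells and 100% = wells with inactivated enzyme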
# rRNA inh HTS OD600: recorded beside rRNA inh HTS, whose call it bears; OD600 change, %; measured here: OD600 growth;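 optical density of the mix in the first replicate; 0 = DMSO median and -100 = no signal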
# rRNA inh HTS RFP: further read-out of rRNA inh HTS, marked with its call; RFP signal change, %; measured here: RFP humanized mutant strains;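 first replicate; 0 = DMSO median and -100 = no signal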
# Numbers without * were called inactive; i = inactive; / = not tested or not shown. An excerpt (hit frequency here may not be typical).
B2AR ag,Ecoli growth,FGF22 binding,UCH37 inh,HNF4A DNA FP,rRNA inh HTS,rRNA inh HTS OD600,rRNA inh HTS RFP,ALR H2O2 inh,SMILES
6,/,i,/,0.5,9,14,0.4,4,C=CCNc1nc(N)c([N+](=O)[O-])c(Nc2cccc(Cl)c2)n1
0,0.68,i,-140,2.1,0,1,-3.3,-16,COc1ccc(NC(=O)CCC(=O)Nc2ccc3nc(N4CCOCC4)cc(C)c3c2)c(OC)c1
-32,0.62,i,1.4,-0.3,3,4,0.4,/,Cc1cc(Cl)ccc1OC(C)C(=O)NN=C1CCCCCC1 (stereo unspecified)
-18,0.62,i,2.0,-0.6,-4,-5,1.3,2,O=C(/C=C/c1ccccc1)NC(N1CCOCC1)C(Cl)(Cl)Cl (stereo unspecified)
-3,0.66,/,-82,4.0,/,/,/,-6,O=C(Cc1ccccc1)Nc1ccc2oc(-c3cccnc3)nc2c1
5,0.66,i,-0.9,1.4,9,3,-1.1,-2,Cc1ccc(S(=O)(=O)N(C)C)cc1NC(=O)c1ccc2ccccc2n1
-1,0.71,/,0.1,2.1,/,/,/,-5,O=C(O)C1CCCCC1C(=O)NCCCCc1ccccc1 (stereo unspecified)
8,0.74,/,-0.6,0.1,/,/,/,-1,CCSc1nc2ccccc2n1CC(=O)OC
8,/,i,/,-0.6,-6,9,1.1,5,O=C(Nc1ccc(Cl)cc1)N1CCCN(c2ccc(C(F)(F)F)cc2[N+](=O)[O-])CC1
-1,0.65,i,-2.3,3.7,21,21,1.6,0,CC(=O)N1CCOCCOCCN(C(C)=O)CCOCC1
-19,0.69,i,-12,-0.8,-12,-10,0.9,-3,CCOC(=O)N1CCN(c2ccnc3cc(Cl)ccc23)CC1
-14,0.73,i,4.1,2.3,-2,-9,-7.7,-4,CCCc1nnc2n1N=C(c1ccc(C)cc1)CS2
/,/,i,/,1.1,10,8,0.6,/,CCOC(=O)C1(C)CCCN1C(=O)c1ccccc1OC (stereo unspecified)
0,0.72,/,0.6,1.1,/,/,/,-25,CCOC(=O)C1=C(C)NC(=O)NC1c1cc2c(cc1Br)OCO2 (stereo unspecified)
-10,0.66,i,2.2,2.1,-8,-8,2.8,6,CC(=O)C(C)Oc1ccc(Cc2ncc(C(F)(F)F)cc2Cl)cc1 (stereo unspecified)
8,0.71,/,3.6,-0.4,/,/,/,/,O=C(/C=C/Nc1ccc(F)cc1Br)c1ccccc1
-4,0.71,i,2.6,2.6,4,-5,-0.2,-6,COCC1CCN(C(=O)c2cc(COc3ccc(F)cc3F)on2)C1 (stereo unspecified)
3,0.64,i,6.8,-2.0,-16,-22,2.4,0,COc1ccc(CC2(C)OC(c3ccc(C)c([N+](=O)[O-])c3)=NN2C(C)=O)cc1 (stereo unspecified)
-2,/,/,/,-1.8,/,/,/,4,CCC(/C=N/NC(=O)C1COc2ccccc2O1)CC (stereo unspecified)
-5,0.7,/,-1.8,-2.2,/,/,/,/,CCNc1nc(Oc2ccc(=O)[nH]n2)nc(SC)n1
9,/,i,/,-1.6,-17,-16,4.2,/,Oc1ccccc1/C=N/Nc1nc2ccccc2o1
-1,0.68,i,-0.3,2.9,15,17,5.1,/,CCOC(=O)CC1C(=O)NCCN1C(=O)c1ccc(Cl)cc1 (stereo unspecified)
11,0.69,i,1.5,-5.1,7,8,-2.2,-3,O=C1CCCN1CCCNC(=S)Nc1ccc(F)cc1
9,/,i,/,0.2,-3,-37,16,/,CN(CCNC(=O)c1c[nH]c2c1ccc1ccccc12)CCNC(=O)c1c[nH]c2c1ccc1ccccc12
-1,0.7,i,0.4,-0.8,11,9,1.3,-8,COc1cccc(-c2nc(N)nc(SC)c2C#N)c1
/,/,i,/,0.3,9,11,-0.6,/,O=C1C[C@@H]2C(=O)N(c3ccccc3)C(=O)[C@@H]2[C@@H]2CN(S(=O)(=O)c3ccccc3)[C@@H](c3ccccc3)[C@H]12
3,/,/,/,-3.4,/,/,/,-29,COc1ccc(CCN2C(=O)c3cccc4cccc(c34)C2=O)cc1OC
-8,0.68,i,-0.9,5.5,-7,-3,-1.7,/,CCCCn1c(N)c(N(CCC(C)C)C(=O)COC(=O)c2ccc3ccccc3c2)c(=O)[nH]c1=O
20,0.7,/,-1.4,-0.5,/,/,/,-25,Cc1ccccc1NC(=O)c1ccc(CN2CCC(Cc3ccccc3)CC2)cc1
/,/,i,/,2.9,-4,7,7.2,/,CCN(C(=O)CN(C1=NC2CS(=O)(=O)CC2S1)c1ccc(OC)cc1)c1cccc(C)c1 (stereo unspecified)
6,0.68,i,0.7,-2.2,-4,-16,-2.3,18,COc1ccc2nc(C)cc(N3CCN(c4ccccc4)CC3)c2c1
3,0.67,i,3.2,4.3,-1,5,3.4,12,CCc1cccc(CC)c1-n1c(SCC(=O)N2CCCc3ccccc32)nc(O)cc1=O
9,0.65,i,4.5,3.9,11,8,-0.2,-10,CC(C)(C)c1ccc(C(=O)NCCC(=O)N2CCC3(CC2)NCCc2[nH]cnc23)cc1
-4,0.66,i,0.5,0.3,-37,-63,-5.9,-1,Cc1ccc(-c2nc3ccc(Cl)cc3c(=O)n2O)cc1
14,0.68,i,4.3,0.8,-14,-2,5.5,/,CC(=C\C(=O)O)/C(=C\c1cccc2ccccc12)C(=O)O
9,0.68,i,4.4,3.7,7,3,-1.3,11,COCCN(CCOC)c1nc(-c2ccc([N+](=O)[O-])cc2)nc2ccccc12
4,0.69,/,-0.3,-2.7,/,/,/,-3,Cc1ccc(-c2nnc(SCc3ccccc3F)o2)cc1
-5,0.72,/,2.9,3.1,/,/,/,/,CC(=O)NC12CC3CC(C1)CC(C(=O)OCC(=O)NC(=O)c1cccn1C)(C3)C2
0,0.69,i,1.0,-0.5,2,-6,-1.4,19,COc1ccc(C(=O)CSc2nc3[nH]ncc3c(=O)[nH]2)cc1
3,0.67,/,-0.3,-1.8,/,/,/,-1,CCn1c(SCC(N)=O)nc2c1c(=O)n(C)c(=O)n2C
16,0.61,i,3.8,-0.7,-5,-7,4.6,5,CCCCc1cc2ccccc2c(OCCN(C)C)n1
1,0.69,i,1.6,-2.7,-17,-12,-1.7,-1,O=C(c1ccccc1)c1cccn1CC(=O)N1CCc2ccccc2C1
-16,0.71,i,0.9,4.4,1,1,-1.0,-2,O=C(c1ccc(Cl)cc1)[C@@H]1[C@@H]2C(=O)N(c3cccc4ccccc34)C(=O)[C@@H]2C2c3ccccc3C=NN21 (stereo partly specified)
-3,0.7,i,1.6,2.0,0,0,-1.2,-9,O=C(CNC(=O)c1ccc2c(c1)OCCO2)N=Nc1c(O)[nH]c2ccccc12
-6,0.64,i,1.4,-2.4,3,7,0.0,-127,Cc1cccc(C)c1NC(=O)CNC(=O)c1ccc2nc[nH]c2c1
3,0.7,i,5.0,-2.4,-1,9,-1.3,/,CC(=O)NCC(=O)N(C)C(C(=O)Nc1ccc2c(c1)OCCO2)c1ccc(C)cc1 (stereo unspecified)
-5,0.68,/,-3.5,-7.5,/,/,/,-2,CCOC(=O)c1sc(NC(=O)c2cc(S(=O)(=O)N3CCOCC3)ccc2C)nc1C
7,0.71,/,5.6,-3.2,/,/,/,-19,CCOc1ccc(NC(=O)C2CC=CCC2C(=O)O)cc1 (stereo unspecified)
6,0.73,i,13,1.1,-30*,-20*,1.8*,0,CCn1c(=S)sc2c(=O)n(-c3ccccc3)c(=S)[nH]c21
-2,/,i,/,3.6,8,-3,-0.5,-4,CCSc1ccccc1C(=O)Nc1ccc2c(c1)OCO2

# Going on with the list:
B2AR ag,Ecoli growth,FGF22 binding,UCH37 inh,HNF4A DNA FP,rRNA inh HTS,rRNA inh HTS OD600,rRNA inh HTS RFP,ALR H2O2 inh,SMILES
-1,0.69,i,5.3,-0.8,2,-1,0.8,-2,CCOC(=O)c1c(C)[nH]c(C)c1S(=O)(=O)N(C)CC(=O)N(C)Cc1ccccc1
/,/,i,/,41*,4,5,5.5,/,CC(C)[C@H](NC(=O)OC(C)(C)C)c1cc(C(=O)N[C@@H](C)c2ccccc2)c(N)s1
-11,0.68,i,1.5,-1.4,0,-3,-0.4,-15,Cc1ccccc1CSc1nnc(Cn2c(=O)sc3ccccc32)n1C
0,0.68,i,4.1,2.5,-4,-2,-0.7,/,CC(=O)Nc1cccc(OCC(=O)Nc2cccc(S(=O)(=O)N3CCCC3)c2)c1
-6,/,i,/,-32,6,12,-2.3,/,CC(C)(C)c1cc[n+](-c2[nH]c(=O)sc2/C=N/NC(=O)c2ccccc2[O-])cc1
5,0.66,i,-1.1,-0.1,41,27,1.1,0,Cc1ccc(Nc2cc(C)nc3c(C)cccc23)cc1
5,0.64,i,5.3,-0.3,-9,-32,-1.6,5,COc1ccc(C)cc1NC(=O)c1ccc(NS(=O)(=O)c2c(C)noc2C)cc1
-7,/,/,/,1.9,/,/,/,39,C/C(=N\Nc1cc(Cl)nc(C)n1)c1ccccc1
9,0.67,i,3.2,4.7,5,-4,2.8,2,Cc1ccc(OCC(COCc2ccccc2)NC(C)C)cc1 (stereo unspecified)
5,0.63,i,0.6,0.7,-16,-27,1.2,-1,COc1ccc(Cl)cc1NC(=O)CN1C(=O)NC(Cc2c[nH]c3ccccc23)C1=O (stereo unspecified)
-1,0.68,/,5.2,-9.4,/,/,/,-1,COCCNC(=O)CCn1nc(-c2ccc(Cl)cc2)ccc1=O
-1,0.69,/,-1.7,2.1,/,/,/,49,Nc1ccc(N2CCN(C(=O)c3cccs3)CC2)cc1
/,/,i,/,2.0,-18,-47,-1.3,/,COc1ccccc1-c1cnc(C(O)c2c(C)cc(C)cc2C)[nH]1 (stereo unspecified)
-1,/,/,/,-3.7,/,/,/,-1,CC1C/C(=N/NC(=O)c2cccs2)CC(C)(C)C1 (stereo unspecified)
-15,0.72,/,2.1,0.6,-4,3,1.7,-16,COc1ccc(NCC(=O)n2c(C)c(C)c3ccccc32)cc1
9,0.68,i,0.4,0.8,7,6,-0.9,-5,C=CCN1C(=O)c2cccc3c(Br)ccc(c23)C1=O
-9,0.68,i,1.2,-0.5,-14,-28,-7.7,-9,CC(Oc1ccc(Br)cc1Br)C(=O)Nc1cccnc1 (stereo unspecified)
-23,0.71,i,6.8,-3.4,4,4,7.0,-30,C=CCN1C(=O)NC(c2ccc(OC)cc2)(C(F)(F)F)S/C1=C(\C#N)c1nnc(N2CCOCC2)n1-c1ccccc1 (stereo unspecified)

# Sorted by formula weight (lowest first): part of the list above
B2AR ag,Ecoli growth,FGF22 binding,UCH37 inh,HNF4A DNA FP,rRNA inh HTS,rRNA inh HTS OD600,rRNA inh HTS RFP,ALR H2O2 inh,SMILES
-7,/,/,/,1.9,/,/,/,39,C/C(=N\Nc1cc(Cl)nc(C)n1)c1ccccc1
9,0.67,i,3.2,4.7,5,-4,2.8,2,Cc1ccc(OCC(COCc2ccccc2)NC(C)C)cc1 (stereo unspecified)
/,/,i,/,2.0,-18,-47,-1.3,/,COc1ccccc1-c1cnc(C(O)c2c(C)cc(C)cc2C)[nH]1 (stereo unspecified)
-1,0.68,/,5.2,-9.4,/,/,/,-1,COCCNC(=O)CCn1nc(-c2ccc(Cl)cc2)ccc1=O
-9,0.68,i,1.2,-0.5,-14,-28,-7.7,-9,CC(Oc1ccc(Br)cc1Br)C(=O)Nc1cccnc1 (stereo unspecified)
5,0.64,i,5.3,-0.3,-9,-32,-1.6,5,COc1ccc(C)cc1NC(=O)c1ccc(NS(=O)(=O)c2c(C)noc2C)cc1
0,0.68,i,4.1,2.5,-4,-2,-0.7,/,CC(=O)Nc1cccc(OCC(=O)Nc2cccc(S(=O)(=O)N3CCCC3)c2)c1

# From PubChem
